AmpC nodet inh – inhibitors of E. coli AmpC beta-lactamase without detergent; P00811; AmpC nitrocefin hydrolysis, absorbance 480 nm, no detergent; potencies from a single point are estimates; Potency, µM (doses to about 28.7 µM), inactives show at the top dose activity change, negative = inhibition; 1.8% of 71,000 active; active = falling curve, for most hits resting on a single point; inconclusive = weak or doubtful change; inactive = flat or rising curve; note: % of control where 0% means no effect; a quarter of the inactives give rising signals
Target sequence (P00811 whole entry, looked up): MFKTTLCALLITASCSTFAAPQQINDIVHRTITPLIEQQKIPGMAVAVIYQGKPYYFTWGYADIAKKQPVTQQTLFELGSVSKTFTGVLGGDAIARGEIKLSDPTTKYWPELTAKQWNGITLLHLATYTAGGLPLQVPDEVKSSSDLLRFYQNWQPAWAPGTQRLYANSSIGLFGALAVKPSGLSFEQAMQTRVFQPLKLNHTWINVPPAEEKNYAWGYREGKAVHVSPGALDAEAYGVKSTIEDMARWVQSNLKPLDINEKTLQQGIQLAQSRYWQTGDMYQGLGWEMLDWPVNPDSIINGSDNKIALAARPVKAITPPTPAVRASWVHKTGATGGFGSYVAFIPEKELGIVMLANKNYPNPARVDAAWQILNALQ
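AmpC, 20 mM phosphate pH 7.0; 15 min cpd preinc, RT; start with nitrocefin (800 uM stock); A480 kinetic read, 20 s intervals, 4 min. No-enzyme wells = negative control.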
Active calls of the source: *; [ ] = another dose, or the depositor's remark. Potency is the fitted concentration of half-maximal effect. These rows are one share of the data, so the mix of outcomes need not match the whole.

molecule	AmpC nodet inh
Cc1cccc(N2C(=O)SC(N(CC(=O)O)c3cccc(C)c3)C2=O)c1 (stereo not drawn)	5.6%
COC(=O)[C@@]1(Cc2ccc(OC)cc2)[C@H]2c3cc(C(=O)N4CCCC4)n(Cc4ccc(Cl)c(C(F)(F)F)c4)c3C[C@H]2CN1C(=O)c1ccccc1	79.6%
CN(C)Cc1ccccc1-c1nc(N(C)C)c2ccccc2n1	27.6%
CC(C)(C)C(=O)OCC1OC(n2cnc(C(N)=O)n2)C(O)C1O (stereo not drawn)	-4.0%
COC(=O)CCC(NC(=O)c1cc(-c2ccc3c(c2)OCCO3)oc1C)C(=O)OC (stereo not drawn)	98.6%
CCC(=O)N1c2ccc(S(=O)(=O)CCC(=O)NCc3ccc4c(c3)OCO4)cc2CC1C (stereo not drawn)	16.3%
CC1=CCC(COC(=O)Nc2ccccc2)CC1 (stereo not drawn)	-10.3%
CCOC(=O)N1CCN(C(C)C(=O)c2c[nH]c3ccccc23)CC1 (stereo not drawn)	31.1%
CC(C)OCCCN1CN(S(=O)(=O)c2ccccc2)c2nc3ccccc3nc21	94.1%
Cc1cc(C)c(NC(=O)CSc2nnc(-c3ccncc3)n2Cc2ccco2)c(C)c1	51.5%
CN(C)CCNc1oc(COc2ccc(-c3ccccc3)cc2)nc1C#N	106.9%
CCOc1ccc(N2C(=O)C3CCCN3C2=O)cc1 (stereo not drawn)	-12.4%
CCC(C)NC(=O)C1CCCN(S(=O)(=O)c2ccc(-n3cnnn3)cc2)C1 (stereo not drawn)	4.1%
CCn1c(Cn2nnc(-c3ccccc3)n2)nnc1SCC(=O)Nc1ccc(C(C)=O)cc1	92.4%
Cc1ccc2c(c1)cc(CN(Cc1cccs1)C(=O)c1ccco1)c1nnnn12	28.9%
Cc1ccc(C)c2[nH]c(=O)c(C(c3nnnn3CCc3ccccc3)N3CCOCC3)cc12 (stereo not drawn)	94.5%
COc1ccc(-n2c(Cc3cccn3C)nnc2SCC(=O)Nc2ccccc2OC)cc1	109.2%
CCn1c(=O)cc(N2CCCCC2)[nH]c1=O	-17.3%
O=C(c1cnn(-c2ccccc2)c1-n1cccc1)N1CCN(C2CCCCC2)CC1	12.0%
COc1cc(NC(=O)CN2CC(c3ccccc3)CC2=O)cc(OC)c1 (stereo not drawn)	45.9%
FC(F)(F)c1nnc2ccc(N3CCOCC3)nn12	-9.4%
CC(=O)Nc1ccc(S(=O)(=O)N2CCC(NC(C)=O)(c3cccc(F)c3)CC2)cc1	2.0%
CC(Oc1ccc(Cl)cc1)C(=O)Nc1ncccn1 (stereo not drawn)	8.2%
O=C(c1cnccn1)N1CCC2(CCN(Cc3ccccc3)CC2)CC1	-1.8%
Cc1ccc(Cn2nnnc2CN2CCC(O)(c3ccc(F)cc3)CC2)cc1	116.8%

An excerpt from above in order of count of non-hydrogen atoms, rising.
molecule	AmpC nodet inh
CCOC(=O)N1CCN(C(C)C(=O)c2c[nH]c3ccccc23)CC1 (stereo not drawn)	31.1%
COc1cc(NC(=O)CN2CC(c3ccccc3)CC2=O)cc(OC)c1 (stereo not drawn)	45.9%
CCC(=O)N1c2ccc(S(=O)(=O)CCC(=O)NCc3ccc4c(c3)OCO4)cc2CC1C (stereo not drawn)	16.3%

Continuation:
molecule	AmpC nodet inh
CCN(CC)S(=O)(=O)c1cc(C(=O)O)ccc1Cl	-7.8%
CCc1nnc(NC(=O)CSc2nc3c(cc2C#N)CCC3)s1	0.3%
c1nc(N2CCOCC2)c2cc(-c3ccoc3)ccc2n1	18.5%
COc1cc2c(cc1OC)C(C(=O)N1CCC3(CC1)OCCO3)C(c1ccccc1F)N(C)C2=O (stereo not drawn)	44.4%
CCC1(C(=O)OC)NC(c2ccco2)C2C(=O)N(c3ccccc3)C(=O)C21 (stereo not drawn)	12.7%
COc1cc(-c2csc(C)n2)ccc1O	-5.2%
CC1=[N+]([O-])C(C)(C)C(C)N(O)C1=O (stereo not drawn)	0.9%
CCCC(c1nnnn1Cc1cccs1)N1CCN(c2nc3ccccc3s2)CC1 (stereo not drawn)	32.6%
COc1ccc(C)cc1NC(=O)C1CCCN(S(=O)(=O)c2cccc3nonc23)C1 (stereo not drawn)	4.0%
Nn1c(COc2ccccc2)nnc1SCc1cc(=O)[nH]c2ccccc12	3.8%
CN1CCN(c2nc3c(c(=O)n(C)c(=O)n3C)n2CC(=O)C23CC4CC(CC(C4)C2)C3)CC1	124.1%
CCOC(=O)c1csc(NC(=O)CSc2nnnn2CC)n1	1.2%
CCOC(=O)C1C(=O)CC(C)(O)C(C(=O)OCC)C1c1cccc(OC(F)(F)C(F)F)c1 (stereo not drawn)	93.5%
CC1CN(c2oc(-c3ccco3)nc2C#N)CC(C)O1 (stereo not drawn)	4.3%
O=C(CSc1ncnc2c1oc1ccccc12)NCC1CCCO1 (stereo not drawn)	2.5%
CCOc1ccccc1Nc1nnc(SCc2ccc(C(=O)OC)o2)s1	0.2%
COc1ccc(NC(=O)N2CCC3(CC2)CCN(C(=O)Oc2ccccc2)CC3)cc1	5.2%
Cc1cc(NC(=O)CSc2nnc(-c3cccnc3)n2C)no1	-14.5%
CCOC(=O)N1CCN(C(=O)c2oc3ccc(S(=O)(=O)N4CCOCC4)cc3c2C)CC1	91.1%
CCCCCCCCCCCCC/C=C\[C@H](O)[C@H](N)CO	17.7%
Cc1nc2nc(SCC(=O)NCc3ccco3)nn2c(C)c1Cc1c(F)cccc1Cl	45.0%
Cc1c(C#N)c(N)c(C(=O)c2ccccc2)n1Cc1ccccc1	1.0%
COC(=O)[C@@]1(C)C=C[C@@H](Cc2ccccc2)N1C	95.3%
O=c1cccc2n1CC1CC2CN(C(c2ccccc2)c2sc3ncnn3c2O)C1 (stereo not drawn)	13.7%
Cn1nc(C(=O)OCC(=O)N2CCc3ccccc32)c2ccccc2c1=O	89.8%

Continuation:
molecule	AmpC nodet inh
N#Cc1c(/N=C/c2cccs2)sc2c1CCCCC2	-11.6%
Cn1c(SCc2nc(-c3cccs3)no2)nnc1C1CCCCC1	29.0%
COc1ccc2c(=O)cc(-c3ccccc3)oc2c1O	-8.2%
CCN(CC)S(=O)(=O)c1ccc(C(=O)OCn2nnc3ccccc3c2=O)cc1	53.6%
O=C(NCc1ccccn1)C1CCN(S(=O)(=O)N2CCCC2)CC1	-3.8%
CC1(C)C(c2ccccc2)=NC(c2cccnc2)=[N+]1[O-]	12.3%
O=C(CSc1nc(N2CCCCC2)nc(N2CCCCC2)n1)NC1CCCCC1	49.0%
CC(C)NC(=O)c1cc2c(-c3ccc(Cl)cc3)nn(C)c2s1	0.794µM*[single pt active]
COc1ccccc1N1CCN(CCCCNC(=O)c2ccc(-c3ccc(C(C)=O)cc3)cc2)CC1	42.2%
COC(=O)c1ccc(C)c(NS(=O)(=O)c2ccc3c(c2)OCCO3)c1	-17.1%
COCCN1Cc2cccc(C(=O)Nc3ccc(S(=O)(=O)N4CCCCCC4)cc3)c2C1=O	50.0%
Cc1nc2cnc(N3CCN(C)CC3)nc2n(CCC#N)c1=O	7.7%
CC(C)c1nc(SCc2c(F)cccc2Cl)c2c(=O)n(C)c(=O)n(C)c2n1	12.8%
Cc1cc2c(c(=O)n1C)C(Cc1ccccc1)C(C#N)=C(N)O2 (stereo not drawn)	-0.5%
COc1cc2cc(CN(Cc3nnnn3C3CCCC3)C3CCCC3)c(=O)[nH]c2cc1OC	48.6%
Cc1ccccc1N(CC(=O)Nc1ccccc1C(=O)O)S(C)(=O)=O	-4.5%
O=C(CSc1nc(O)cc(=O)n1-c1ccccc1)N1CCCCC1	-6.1%
COc1ccccc1C(=O)Nc1cccc(N(C)S(C)(=O)=O)c1	19.6%
Cc1occc1C(=O)Nc1cccc(Cn2cccn2)c1	1.3%
Cc1ccc(CCNC(=O)C2CCC(=O)N2C2CCCC2)cc1 (stereo not drawn)	2.8%
O=C(COc1ccccc1)Nc1nc(-c2ccc(S(=O)(=O)N3CCOCC3)cc2)cs1	-0.8%
c1ccc(Oc2ccc(-n3cnnn3)cc2)cc1	-5.1%
Cc1ccc(S(=O)(=O)N(Cc2nccn2C)C(C)C)cc1	26.0%
Cc1cc(C)c2c(N=CN(C)C)c(C(=O)N3CCN(c4ncccn4)CC3)sc2n1	76.9%
O=S(=O)(N1CCOCC1)N1CCCN(S(=O)(=O)N2CCOCC2)CC1	-3.4%

4 entries from above, field by field:
CCOC(=O)C1C(=O)CC(C)(O)C(C(=O)OCC)C1c1cccc(OC(F)(F)C(F)F)c1 (stereo not drawn)
  AmpC nodet inh: 93.5%

CC1CN(c2oc(-c3ccco3)nc2C#N)CC(C)O1 (stereo not drawn)
  AmpC nodet inh: 4.3%

O=C(CSc1ncnc2c1oc1ccccc12)NCC1CCCO1 (stereo not drawn)
  AmpC nodet inh: 2.5%

CCOc1ccccc1Nc1nnc(SCc2ccc(C(=O)OC)o2)s1
  AmpC nodet inh: 0.2%

The list goes on.
molecule	AmpC nodet inh
COc1cc2c(cc1OC)C(c1ccc3c(c1)OCO3)C1=C(CC(C)(C)CC1=O)N2 (stereo not drawn)	33.2%
Cc1ccc(-c2nnc(SCC(=O)Nc3nc4c(s3)CCCC4)n2C)cc1	11.0%
COC(=O)C1=CNC=C(C(=O)OC)C1c1ccccc1Cl	1.8%
CN(CCC#N)CC(=O)Nc1ccc(NC(=O)CN(C)CCC#N)cc1	2.5%
Cn1c(SCC(=O)NCc2ccco2)nnc1-c1ccc(S(=O)(=O)N2CCOCC2)cc1	6.7%
CCOC(=O)N1CCC(c2cc(=O)n3[nH]c(C)c(-c4ccc(F)cc4)c3n2)CC1	50.3%
Cc1ccc(C)c(CSc2nnc(CCN)o2)c1	6.1%
CCOC(=O)C1CCN(C(=O)CN(c2ccc(OC)cc2)S(=O)(=O)c2c(C)nn(C)c2C)CC1	121.5%
CCC(=O)Nc1nnc(Cc2ccccc2)s1	5.5%
O=C(NCCCN1CCOCC1)c1cc(-c2ccc3c(c2)OCO3)nc2ccccc12	135.5%
CCCc1cc(=O)[nH]c(SCC(=O)N(C)Cc2ccccc2)n1	-1.2%
CC1CCCCN1C(=O)c1cc(F)c(F)cc1Cl (stereo not drawn)	-1.8%
O=C(CC(SCCO)c1ccc2c(c1)OCO2)c1ccco1 (stereo not drawn)	1.6%
CCn1c(COc2ccccc2C)nnc1SCC(=O)Nc1ccc2c(c1)OCCO2	28.6%
COc1ccc2c(c1)OC(O)(C(F)(F)C(F)F)CC2=O (stereo not drawn)	-0.7%
CCOC(=O)CNC(=O)c1cn(C)c(=O)c2cc(OC)c(OC)cc12	-9.6%
COC(=O)c1ccc(NC(=O)CSc2nnc(-c3ccncc3)n2N)cc1	10.0%
Cn1c(=O)c2ncn(CC(=O)NCCOc3ccccc3)c2n(C)c1=O	2.6%
CCOc1ccccc1NC(=O)CCCc1nc2ccccc2c(=O)[nH]1	4.7%
O=C(NCC(=O)N(c1ccc2c(c1)OCCO2)C(C(=O)NC1CCCC1)c1ccco1)c1ccco1 (stereo not drawn)	16.3%
O=c1c2ccccc2c(/C=N/c2ncn[nH]2)c(O)n1Cc1ccccc1	14.7%
CCOC(=O)CN1C(=O)C(O)(CC(=O)c2cccc(OC)c2)c2ccccc21 (stereo not drawn)	27.2%
CCSc1nnc(-c2ccccc2NC(C)=O)c(=O)[nH]1	-1.9%
O=P(O)(O)O[C@@H]1O[C@H](CO)[C@@H](O)[C@H](O)[C@@H]1O	-4.3%[5.75 µM]
CC(C)(C)NC(=O)Cn1cc(C#N)c2cc(Br)ccc21	6.3%

(continued)
molecule	AmpC nodet inh
CC1=C(C(=O)NCc2ccco2)C2(CCC(C)CC2)OC1=O (stereo not drawn)	9.1%
O=C(C1CCC1)N1CCC(c2nc3c(nnn3Cc3c(F)cccc3Cl)c(=O)[nH]2)CC1	38.3%
COc1cccc(NS(=O)(=O)c2ccc3[nH]cc(C(=O)NCCC(C)C)c(=O)c3c2)c1	-14.1%
COc1ccc(C(=O)N2CCC3(CCCN(C)C3)CC2)cc1	0.3%
CN(C)c1ccc(-c2nc(N3CCNCC3)c3ccccc3n2)cc1	43.5%
Cc1ccc(S(=O)(=O)NCCCN2CCOCC2)c(C)c1	-6.1%
Cn1c(Cn2c(=O)sc3ccccc32)nnc1SCc1ccccn1	10.7%
Cc1cc(N2CCN(C3CCCCC3)CC2)nc2cccc(O)c12	2.7%
Cc1ccc(C)c(N2CCN(C(=O)CCCn3c(=S)[nH]c4cc5c(cc4c3=O)OCO5)CC2)c1	15.5%
CCOC(=O)N1CCN(S(=O)(=O)c2c(C)nn(C)c2C)CC1	8.4%
COc1ccc(Cl)cc1S(=O)(=O)n1ccnc1C(C)C	21.5%
O=C(c1ccc(Br)s1)N1CCN(Cc2ccc3c(c2)OCO3)CC1	35.6%
CCc1cccc2c(C#N)cn(CC(=O)NCc3ccco3)c12	9.2%
Cn1c(=O)c2cc(S(=O)(=O)Nc3ccc4c(c3)OCO4)ccc2n(C)c1=O	-1.6%
CCC(CC)C(=O)N(c1ccc(F)cc1)C1C=CS(=O)(=O)C1 (stereo not drawn)	10.9%
O=C(NC1CCCCCC1)C1CCN(S(=O)(=O)c2cccc3cccnc23)CC1	22.6%
Cc1ccc(C)c(Cn2c(=O)c3c(nc4n3CCN4Cc3ccco3)n(C)c2=O)c1	74.4%
Cc1ccc(-c2csc(NC(=O)c3cccc(N4C(=O)CCC4=O)c3)n2)o1	70.7%
CC(C)c1ccc(OCc2nc(-c3ccccn3)no2)c(Br)c1	77.6%
NC(=O)Nn1c(CCC(=O)O)ccc1-c1ccc(Br)cc1	-14.0%
Cn1nnnc1SCC(=O)Nc1c(Cl)cccc1Cl	-14.9%
COCCNC(=O)C1(CC(C)C)C=CCN1C(=O)c1ccccc1 (stereo not drawn)	11.7%
